RVFV N-RNA FP = inhibitors of RVFV nucleoprotein–RNA binding, primary screen, biochemical, fluorescence polarization; P21700; RVFV N-RNA binding; hits give low values; % bound, % (no concentration beside the values); hit rate 0.1% among 20,000; AID 651828, 2012;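 active means between 0 and 58% in either replicate with normal brightness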;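 further: 100 nL library stock added to about 12 µL; 100% = protein and probe without compound and 0% = probe alone; numbers are from one replicate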
Target sequence (P21700 whole entry, looked up): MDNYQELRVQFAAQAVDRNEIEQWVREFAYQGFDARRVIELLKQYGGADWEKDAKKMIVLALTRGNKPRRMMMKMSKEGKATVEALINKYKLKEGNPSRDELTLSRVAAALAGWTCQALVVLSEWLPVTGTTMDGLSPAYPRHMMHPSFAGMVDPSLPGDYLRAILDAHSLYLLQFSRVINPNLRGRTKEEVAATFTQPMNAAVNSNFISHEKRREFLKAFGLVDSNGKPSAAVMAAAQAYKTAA
The depositor's hits bear a star; & = joins results of further samples. Some of the compounds tested. The share of hits here may be higher or lower than overall.

Preview (18 entries):
nr | smiles | RVFV N-RNA FP
1 | Cc1nnc(N2C(=O)C(=O)/C(=C(/O)c3ccc(OC(C)C)cc3)C2c2ccco2)s1 (configuration not stated) | 93
2 | S=C(NCCc1ccccc1)NN1CCOCC1 | 102
3 | CC1(C)COCN1C(=O)c1cc2c(=O)n3ccccc3nc2s1 | 94
4 | Cc1ccc(/C=N/NC(=O)C2CC23CCC3)cc1 (configuration not stated) | 99
5 | Cc1noc(C)c1C(=O)N1CCN(C(=O)c2ccco2)CC1 | 99
6 | COc1ccccc1NC(=O)c1ccc2c(c1)C(=O)N(Cc1ccncc1)C2=O | 92
7 | OC(CNCc1ccc(F)cc1)c1ccccc1 (configuration not stated) | 94
8 | O=C(CSc1ccccn1)N/N=C/c1ccccc1 | 94
9 | Cc1ccccc1CN1CC2CC(C1)c1cccc(=O)n1C2 (configuration not stated) | 99
10 | C[C@@H]1CN(c2c(F)c(F)c3c(=O)c(C(=O)O)cn(C4CC4)c3c2F)C[C@H](C)N1 | 102
11 | O=C1C=CC(=O)C(CCC2=CC(=O)C=CC2=O)=C1 | 95
12 | Cc1cc(N2CCOCC2)nc(-c2ccccc2O)n1 | 90
13 | CC(=O)N1CCCc2ccc(NC(=O)Oc3ccccc3)cc21 | 91
14 | COc1ccc(-c2c(C(F)(F)F)nn(C)c2NC(=O)NC(C)(C)C)cc1 | 91
15 | O=C(Nc1ccccc1)C(F)C(F)(F)F (configuration not stated) | 94
16 | CCN1CCN(C(=O)N2c3ccccc3Sc3ccccc32)CC1 | 85
17 | O=C(NCCn1cc(SCC(=O)N2CCOCC2)c2ccccc21)c1cccs1 | 94
18 | C=CCn1c(O)c(N=N)c2ccccc21 | 97

The list itself, repeating the preview:
nr | smiles | RVFV N-RNA FP
1 | Cc1nnc(N2C(=O)C(=O)/C(=C(/O)c3ccc(OC(C)C)cc3)C2c2ccco2)s1 (configuration not stated) | 93
2 | S=C(NCCc1ccccc1)NN1CCOCC1 | 102
3 | CC1(C)COCN1C(=O)c1cc2c(=O)n3ccccc3nc2s1 | 94
4 | Cc1ccc(/C=N/NC(=O)C2CC23CCC3)cc1 (configuration not stated) | 99
5 | Cc1noc(C)c1C(=O)N1CCN(C(=O)c2ccco2)CC1 | 99
6 | COc1ccccc1NC(=O)c1ccc2c(c1)C(=O)N(Cc1ccncc1)C2=O | 92
7 | OC(CNCc1ccc(F)cc1)c1ccccc1 (configuration not stated) | 94
8 | O=C(CSc1ccccn1)N/N=C/c1ccccc1 | 94
9 | Cc1ccccc1CN1CC2CC(C1)c1cccc(=O)n1C2 (configuration not stated) | 99
10 | C[C@@H]1CN(c2c(F)c(F)c3c(=O)c(C(=O)O)cn(C4CC4)c3c2F)C[C@H](C)N1 | 102
11 | O=C1C=CC(=O)C(CCC2=CC(=O)C=CC2=O)=C1 | 95
12 | Cc1cc(N2CCOCC2)nc(-c2ccccc2O)n1 | 90
13 | CC(=O)N1CCCc2ccc(NC(=O)Oc3ccccc3)cc21 | 91
14 | COc1ccc(-c2c(C(F)(F)F)nn(C)c2NC(=O)NC(C)(C)C)cc1 | 91
15 | O=C(Nc1ccccc1)C(F)C(F)(F)F (configuration not stated) | 94
16 | CCN1CCN(C(=O)N2c3ccccc3Sc3ccccc32)CC1 | 85
17 | O=C(NCCn1cc(SCC(=O)N2CCOCC2)c2ccccc21)c1cccs1 | 94
18 | C=CCn1c(O)c(N=N)c2ccccc21 | 97
19 | O=c1[nH]c2ccccc2c(=O)n1CCNc1cccc(Cl)c1 | 93
20 | O=C(c1ccc(-c2ccccc2)cc1)N1CCCC1 | 97
21 | Cc1ccc(COc2coc(CN3CCN(Cc4ccccc4)CC3)cc2=O)cc1 | 96
22 | O=C(CSc1nnc(NC(=O)C2CC(=O)N(c3ccc(F)cc3)C2)s1)NCC1CCCO1 (configuration not stated) | 98
23 | CN(C)c1ccc(NC(=O)/C=C\C(=O)N2CCOCC2)cc1 | 78
24 | CN1CC(=O)N2[C@H](c3ccc4c(c3)OCO4)c3[nH]c4ccccc4c3C[C@@H]2C1=O | 97
25 | NC(=O)c1ccccc1N/C=C/C(=O)c1ccccc1 | 93
26 | Cc1ccc(C)c(S(=O)(=O)n2ccc(C)n2)c1 | 102
27 | CCc1ccc(NC(=O)Nc2ccccc2)cc1 | 92
28 | C/C(=N\N=C(/N)SCc1cc(F)cc2c1OCOC2)c1ccc(C)nc1 | 108
29 | CS/C(=C(/C#N)S(=O)(=O)C(C)C)N1CCCCC1 | 90
30 | CCOc1cc(C(=O)NC2=C(C(=O)OC)SCC2)cc(OCC)c1OCC | 98
31 | O=c1nc(NC2CCCCC2)cn[nH]1 | 94
32 | COc1ccc(C(=O)NC(C)C)cc1I | 92
33 | Cc1ccccc1-n1ccnc1SCC(N)=O | 111
34 | Brc1ccc2ncnc(N3CCCCCC3)c2c1 | 92
35 | C[C@@H]1CC2C3CCC4=CC(=O)C=C[C@]4(C)[C@@]3(F)[C@@H](O)C[C@]2(C)[C@H]1C(=O)CO (some centres not stated) | 100&97
36 | CNC(=O)COc1ccccc1C(F)(F)F | 96
37 | c1ccc2c(c1)CCCC2C1=NCCN1 (configuration not stated) | 99&95
38 | CCCCC(=O)Nc1ccc(N2CCN(C(=O)CCC)CC2)c(Cl)c1 | 88
39 | COC(=O)c1cnc(N2CCN(c3ncc(C(=O)OC)c(C(F)(F)F)n3)CC2)nc1C(F)(F)F | 99
40 | NC(N)=NCc1cccc(I)c1 | 110
41 | CC(=O)NCc1n[nH]c(=O)c2ccccc12 | 92
42 | Cc1cccc(-n2cnc3c(c2=O)c2nc4ccccc4nc2n3CCC(C)C)c1 | 92
43 | Cc1nnsc1C(=O)N1CCN(C=O)CC1 | 96
44 | Cc1nc(C(F)(F)F)ccc1C(=O)N1CCC(n2cccc2)CC1 | 96
45 | O=C(CSc1ncn[nH]1)Nc1cccc2ccccc12 | 88
46 | O=C(NCCc1cccs1)c1ccc(Cl)cc1 | 97
47 | CCCCN1C(=O)c2ccc(C(=O)NCc3ccco3)cc2C1=O | 113
48 | O=C(O)CSCC(=O)NC1CCCCNC1=O (configuration not stated) | 83
49 | CC1(C)SC2C(NC(=O)COc3ccccc3)C(=O)N2C1C(=O)O (configuration not stated) | 95
50 | O=C(CC(c1ccccc1)c1ccco1)N1CCCCC1 (configuration not stated) | 100

(further entries)
nr | smiles | RVFV N-RNA FP
51 | Cc1cc(OCC(=O)NCc2cccnc2)c(C)cc1Br | 97
52 | Cc1cc(Oc2ccc(Cl)cc2)nc(-c2ccccn2)n1 | 97
53 | C#C[C@]1(O)CC[C@H]2[C@@H]3CCC4=CC(=O)CC[C@]4(C)[C@H]3CC[C@@]21C | 97
54 | CCOc1ccc(NC(=S)N2C(C)CCCC2C)cc1 (configuration not stated) | 103
55 | COC(=O)c1cc(-c2ccc(OC)cc2)n[nH]1 | 89
56 | COc1ccccc1C1CCN(C(=O)[C@@H](C)N2CCN(c3ccc(C(F)(F)F)cn3)CC2)CC1 | 90
57 | c1ccc(OCCCCN2CCCCC2)cc1 | 105
58 | COC(=O)c1ccc(-c2ccccn2)s1 | 96
59 | COC(=O)c1ccc(CO/N=C(\N)c2ccc(C(C)(C)C)cc2)o1 | 94
60 | CN1CCN(C(CNC(=O)NC(C)(C)C)c2ccc(F)cc2)CC1 (configuration not stated) | 101
61 | Cc1ccc(C)c2[nH]c(=O)c(CCNC(=O)CC(C)(C)C)cc12 | 97
62 | O=C1c2ccccc2C(=O)N1CCSc1ncnc2c1cnn2-c1ccccc1 | 93
63 | Cc1cc(C(F)(F)F)nc(NCCc2ccccc2)n1 | 92
64 | COC(=O)c1c(NC(=O)c2nc3ccccc3s2)sc2c1CCN(C(C)=O)C2 | 100
65 | CCN(CC)S(=O)(=O)c1ccc(C(=O)N2CCN(C3=NS(=O)(=O)c4ccccc43)CC2)cc1 | 92
66 | Nc1ccc(-c2ccc3ccccc3n2)cc1 | 101
67 | c1ccc(-c2noc(C34CC5CC(CC(C5)C3)C4)n2)cc1 | 104
68 | COC(=O)/C(=C\N(C)C)S(=O)(=O)c1cc(C)c(Cl)cc1C | 101
69 | Cc1c(C(=O)N2CCN(c3ccccc3)CC2)oc2c1C(=O)CCC2 | 92
70 | CC(=O)Nc1nc2ccc(S(=O)(=O)N3CCOCC3)cc2s1 | 92
71 | Cc1cccc(NC(=O)CSc2nncc(=O)[nH]2)c1 | 100
72 | COc1ccc2[nH]cc(CCNC(C)=O)c2c1 | 95&101
73 | COc1cccc2c(=O)cc(C)n(CC(=O)Nc3ccccc3)c12 | 108
74 | CC(=O)[C@H]1CCC2C3CC[C@H]4C[C@H](O)CC[C@]4(C)C3CC[C@@]21C (some centres not stated) | 91
75 | O=C(NCCc1nnc2ccc(N3CCCCCC3)nn12)c1ccccc1 | 88
76 | Cc1c(OC(=O)c2ccco2)ccc2c(=O)c(-c3nc4ccccc4s3)coc12 | 94
77 | N#CSCC(=O)c1cccc2ccccc12 | 98
78 | CCOC(=O)c1[nH]c(C)c(C(=O)N2CCC(C(=O)OCC)CC2)c1C | 100
79 | O=C(NCc1ccco1)NC1CC(=O)N(c2ccccc2)C1 (configuration not stated) | 93
80 | CSc1cccc(NC(=O)CSc2nnc(Cc3ccccc3)o2)c1 | 91
81 | O=S(=O)(c1ccc(Cl)cc1)n1ccc(-c2ccc(Br)s2)n1 | 95
82 | COC(=O)c1cc(C(=O)OC)c(C)nc1C | 99
83 | OCC1NCC(O)C(O)C1O (configuration not stated) | 93
84 | CC1CCCN(C(=O)c2cccc(Cl)c2)C1 (configuration not stated) | 94
85 | CC(NC(=O)NCc1ccccc1)c1ccccc1 (configuration not stated) | 94
86 | Cc1ccc(N2CC(=O)N(/N=C/c3ccncc3)CC2=O)cc1 | 93
87 | CCc1nnsc1C(=O)Nc1nc2ccc(C)cc2s1 | 90
88 | Cn1cnc2cc(NCc3ccco3)ccc21 | 100
89 | CC(C)c1ccc(/C=N/n2nnnc2Nc2ccccc2)cc1 | 74
90 | CN(C)c1ccc(/C=C2\C(=O)Nc3ccccc32)cc1 | 101
91 | Cc1nnc(NC(=O)C(C)Sc2nncn2C)s1 (configuration not stated) | 99
92 | CCOc1ccc(S(=O)(=O)NCCO)cc1C | 98
93 | CCOC(=O)Cc1csc(NC(=O)c2cc3c(=O)n4cccc(C)c4nc3n2C)n1 | 101
94 | CN(C)C(=O)CSc1nc2ccccc2c(=O)n1-c1ccccc1 | 100
95 | CC1CCC(NC(=O)c2ccccc2N)CC1 (configuration not stated) | 97
96 | Cc1ccc(-c2cc(Cc3ccc(N(C)C)cc3)c(=O)[nH]n2)cc1 | 108
97 | COC(=O)Cn1c(=NC(=O)c2ccccc2)sc2cc(OC)ccc21 | 96
98 | CC(=O)[C@H]1CCC2C3CC=C4C[C@@H](OS(=O)(=O)O)CC[C@]4(C)C3CC[C@@]21C (some centres not stated) | 109
99 | c1coc(-c2nc3nc4ccccc4nc3n2-c2ccc3c(c2)OCCO3)c1 | 96
100 | Cc1cnn(C(=S)NCc2ccco2)c1 | 100

Continuation.
nr | smiles | RVFV N-RNA FP
101 | COc1ccc(S(=O)(=O)NCc2csc(-c3ccccc3)n2)cc1 | 95
102 | NC(=S)Cc1nc(-c2ccccc2)cs1 | 91
103 | Cc1cc(C)c2c(N)c(C(=O)c3ccccc3O)sc2n1 | 94
104 | O=C1NC(=O)N(CCc2ccc(F)cc2)C(=O)/C1=C\c1ccc(O)c(O)c1 | 79
105 | CCOP(C)(=O)C1(C(=O)OCc2ccccc2)CC1 (configuration not stated) | 94
106 | CC(NS(=O)(=O)c1ccccc1)C(=O)Nc1ccccc1F (configuration not stated) | 95
107 | O=C1c2ccccc2C(=O)N1Cc1csc(-c2cccs2)n1 | 98
108 | Cc1sc2nc3scc(CC(=O)NCCO)n3c(=O)c2c1C | 100
109 | CN(C)c1nc(N)c(C(=O)N=C(N)N)nc1Cl | 97
110 | NCCCS(=O)(=O)O | 97
111 | CC12CCC(C/C1=N/OC(=O)c1cc3ccccc3o1)C2(C)C (configuration not stated) | 102
112 | Cc1nc2ccccn2c1/C(O)=C1\C(=O)C(=O)N(CCCN2CCOCC2)C1c1cccc(F)c1 (configuration not stated) | 93
113 | NC(=O)C(c1ccccc1)(c1ccccc1)C1CCN(CCc2ccc3c(c2)CCO3)C1 (configuration not stated) | 110
114 | CC(C)(O)c1ccccc1CC[C@@H](SCC1(CC(=O)O)CC1)c1cccc(/C=C/c2ccc3ccc(Cl)cc3n2)c1 | 94&91
115 | CCOC(=O)NNc1ncc(C(F)(F)F)cc1Cl | 85
116 | O=C(NC(=S)N1CCN(Cc2ccccc2)CC1)c1ccccc1 | 106
117 | NS(=O)(=O)c1ccc(N/C=C2/CCCCC2=O)cc1 | 96
118 | COc1cccc(C2NC(=O)NC3=C2CCc2ccccc23)c1 (configuration not stated) | 112
119 | CC(C)(C)c1nc(Sc2ccc(C(F)(F)F)cn2)n[nH]1 | 90
120 | CC(=O)N1CCc2cc(S(=O)(=O)Nc3cc(C)ccc3C)ccc21 | 97
121 | C/C(=N\N1CCN(C)CC1)C1=C(O)c2ccccc2C1=O | 98
122 | CC(=O)N1CCc2c(sc(NC(=O)c3ccc(Br)s3)c2-c2nc3ccccc3s2)C1 | 94
123 | O=S(=O)(O)NC1CCCCC1 | 97
124 | COc1cc(C(=O)OCCCN2CCCN(CCCOC(=O)c3cc(OC)c(OC)c(OC)c3)CC2)cc(OC)c1OC | 108&100&98
125 | Cc1cc(NC(=O)CSCC(=O)N=c2sc3ccccc3n2C)no1 | 94
126 | Cc1ccc(C2=C[N+](=O)C(C)(C)C(C)(C)N2[O-])cc1 | 108
127 | CC12CCC(C1)C(C)(C)/C2=N\O (configuration not stated) | 92
128 | CCSc1ccccc1C(=O)Nc1cccc(OC)c1 | 98
129 | O=C(Cc1ccccc1)N/N=C/c1ccc(O)cc1 | 101
130 | CC1CCN(CCCC(=O)c2ccc(F)cc2)CC1 | 96&98
131 | COc1ccccc1NCC(C)(C)CC=C(C)C | 93
132 | CN(C)c1ccc(/C=C2/CCC/C(=C\c3ccc(N(C)C)cc3)C2=O)cc1 | 92
133 | NC(=O)c1cccnc1-c1nc2ccccc2s1 | 92
134 | c1ccc2c(c1)c1ccccc1c1nc(N3CCOCC3)nnc21 | 95
135 | COc1c(F)c(F)c(C(=O)Nc2ccc(N3CCN(S(C)(=O)=O)CC3)cc2)c(F)c1F | 94

Reprinted: entries 134–135
nr | smiles | RVFV N-RNA FP
134 | c1ccc2c(c1)c1ccccc1c1nc(N3CCOCC3)nnc21 | 95
135 | COc1c(F)c(F)c(C(=O)Nc2ccc(N3CCN(S(C)(=O)=O)CC3)cc2)c(F)c1F | 94
